From PubChem
NS1 function inh = influenza NS1 inhibition; hit rate 0.4% among 270,000; Potency, µM (series often up to 46.1 µM), for the others: top-dose activity, positive = more growth; S. cerevisiae slowed by influenza A NS1, growth recovery by OD600; further: actives are rising curves; nearly all actives have a fitted effect of over 50% in size
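OD600 was taken as the measure of yeast growth restored by compound in an NS1-expressing S. cerevisiae strain. Cells had been washed out of glucose medium and diluted 1:100 into galactose -URA medium, pH 6.0.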
RE007 growth inh = less growth of the S. pombe RE007 Vpr strain; S. pombe RE007 Vpr strain, BacTiter-Glo ATP luminescence, 24 h; control for the full effect not named in the record; Potency, µM (highest dose often 92.2 µM), inactives show top-dose activity change, negative = less growth; hit rate 0.21% among 360,000; active = well fitted falling curve with a large enough effect; inconclusive = small, poorly fitted or top-dose-only effect; inactive = no such curve, though single readings can be large or run the other way;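 further: on the % scale 0 is the no-effect control and ±100 the full control effect; nearly all actives have a fitted effect of over 50% in size; the assay follows cell death caused by Vpr and the record does not say whether a fall means rescue or toxicity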
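Fission yeast strain RE007, carrying one chromosomally integrated HIV-1 vpr copy, was seeded at OD 0.01 in PMG+AL medium with 23 nL pinned compound. After 24 h at 30 °C and 99% humidity, viability was read by BacTiter-Glo luminescence.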
2A StopGo = lowers the luciferase signal of an FMDV 2A StopGo reporter; human cells with a luciferase reporter of 2A StopGo recoding; control for the full effect not named in the record; Potency, µM (top dose mostly 57.9 µM), for inactives: top-dose signal change, negative = less light; hit rate 1.2% among 410,000; active = well fitted falling curve with a large enough effect; inconclusive = small, poorly fitted or top-dose-only effect; inactive = no such curve, though single readings can be large or run the other way; tested in HEK293T cells; further: on the % scale 0 is the no-effect control and ±100 the full control effect; nearly all actives have a fitted effect of over 45% in size; luciferase light after 4 h
Cruzain Triton = blocks cruzain activity in presence of Triton detergent; P25779; purified cruzain, Z-FR-AMC fluorescence, 0.01% Triton; Potency, µM, for the others: max response, negative = inhibition, most hits filed as inhibitors; hit rate 0.43% among 200,000; active means well fitted curve in the direction sought with a large enough effect; inconclusive means small, poorly fitted or top-dose-only effect, or another doubt; inactive means no such curve, though single readings can be large; an effect the other way counts as inactive or inconclusive;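 further: plate controls were neutral wells for no effect and buffer without enzyme for full effect; nearly all actives have a fitted effect of over 40% in size; top concentration of the series not given in the record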
Target sequence (P25779 123-467 limits assumed): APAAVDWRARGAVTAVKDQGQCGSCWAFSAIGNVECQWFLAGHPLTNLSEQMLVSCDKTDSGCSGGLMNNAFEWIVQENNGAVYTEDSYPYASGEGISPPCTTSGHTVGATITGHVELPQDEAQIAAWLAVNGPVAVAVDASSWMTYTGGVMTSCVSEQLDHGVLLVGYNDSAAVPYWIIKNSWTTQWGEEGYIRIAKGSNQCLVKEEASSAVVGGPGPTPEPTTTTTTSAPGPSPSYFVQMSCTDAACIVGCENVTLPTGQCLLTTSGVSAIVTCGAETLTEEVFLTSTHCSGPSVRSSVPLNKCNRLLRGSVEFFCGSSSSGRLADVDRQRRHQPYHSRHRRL
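Enzyme 1.5 nM, Z-FR-AMC 2 uM, NaOAc 100 mM pH 5.5, DTT 5 mM, Triton X-100 0.01%; 15 min RT compound preincubation; kinetic ex360/em450, 60 s delta.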
SARS PLpro yeast = SARS-CoV PLP inhibition in yeast | hit rate 0.19% among 330,000 | Potency, µM (series often up to 32.9 µM), for the others: at the highest dose activity, positive = growth rescue | S. cerevisiae expressing SARS-CoV PLpro, growth rescue; control for the full effect not named in the record | AID 485353; further: 0% is about no effect; nearly all actives have a fitted effect of over 55% in size; growth read by luminescence after 48 h
Marburg entry inh = blocks Marburg virus binding to or entry into cells | Marburg virus pseudotyped entry inhibition, cell reporter; control for the full effect not named in the record; about a third of the inactives were read at about 46 µM | Potency, µM (series often up to 37.8 µM), inactives show at the highest dose activity change, negative = inhibition, actives largely listed as inhibitors | hit rate 1.8% among 300,000; active = well fitted inhibition curve with a large enough effect; inconclusive = small, poorly fitted or top-dose-only effect, or effect the other way; inactive = flat fitted curve, though single readings scatter; tested in HEK293 cells; about a fifth of its hits are not listed in these tables; further: on the % scale 0 is the no-effect control and ±100 the full control effect; luciferase read-out
Cruzain noTriton = inhibitors of Trypanosoma cruzi cruzain without detergent; purified cruzain, Z-FR-AMC fluorescence, no detergent; Potency, µM, for the others: max response, negative = inhibition, hits mostly inhibitors; hit rate 2.3% among 200,000; AID 1476; active means well fitted curve in the direction sought with a large enough effect; inconclusive means small, poorly fitted or top-dose-only effect, or another doubt; inactive means no such curve, though single readings can be large; an effect the other way counts as inactive or inconclusive;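 further: plate controls were enzyme without inhibitor for no effect and buffer without enzyme for full effect; nearly all actives have a fitted effect of over 40% in size; top concentration of the series not given in the record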
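Detergent-free condition (0.00005% Triton X-100) in acetate buffer pH 5.5 with DTT. 1.5 nM enzyme and compound were pre-mixed 15 min, then 2 uM Z-FR-AMC substrate added; reaction progress from fluorescence change between first and third reads (60 s).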
Lassa entry inh = blocks Lassa virus binding to or entry into cells; Lassa virus pseudotype entry inhibition, cell reporter; control for the full effect not named in the record; Potency, µM (top dose mostly 37.9 µM), without a hit: top-dose activity change, negative = inhibition, hits mostly inhibitors; hit rate 1.2% among 300,000; active means well fitted inhibition curve with a large enough effect; inconclusive means small, poorly fitted or top-dose-only effect, or effect the other way; inactive means flat fitted curve, though single readings scatter; tested in HEK293 cells; further: on the % scale 0 is the no-effect control and ±100 the full control effect; nearly all actives have a fitted effect of over 50% in size; luciferase read-out
An asterisk follows results filed as active; u = inconclusive; x = no result given; & = joins results of further samples; [ ] = another dose, or the depositor's remark. Unless noted, the call rests on the fitted dose curve; in most records, active means well fitted rising curve with a large enough effect; inconclusive means small, poorly fitted or top-dose-only effect; inactive means no such curve, though single readings can be large or run the other way. Potency means the concentration at half of the fitted maximal effect.

SMILES | NS1 function inh | RE007 growth inh | 2A StopGo | Cruzain Triton | SARS PLpro yeast | Marburg entry inh | Cruzain noTriton | Lassa entry inh
C/C(=N\NC(=O)C(N)=O)c1ccc(OC(F)F)cc1 | 3.9% | -14.8% | -5.4% | x | -0.1% | 17.8%[46.1 µM] | x | 9.2%[46.1 µM]
Cc1ccc(NC(=O)CN(C)C(=O)CSc2nc3ccccc3c(=O)n2Cc2ccco2)cc1 | 23.1% | 2.0% | -16.8% | 2.9% | 12.1% | u | -6.3% | -19.4%
Cc1ccc(S(=O)(=O)NC2=NCN(C3CCCCC3)CN2)cc1 | -0.7% | 6.9% | 14.9% | 3.7% | 2.6% | 11.5% | 7.1% | -27.8%
Cc1ccc2c(c1)C(C)CC(C)(C)N2C(=O)NC1CCCCC1 (stereo not given) | 2.7% | -3.2% | u | 1.7% | 7.5% | u | -5.8% | 10.1%
COc1ccc(N2CC(NC(=O)C3CCCCC3)CC2=O)cc1OC (stereo not given) | x | x | -7.0% | -1.8% | x | x | -3.2% | 7.6%[46.1 µM]
Cc1cc(N2C(=O)C(=O)/C(=C(/O)c3ccc(F)cc3)C2c2ccc(F)cc2)no1 (stereo not given) | 12.6% | -6.1% | -3.6% | 0.9% | 3.8% | 2.2% | -5.6% | 14.6%
C=C(CN(C)C)C(=O)c1cc(C)ccc1C | x | 9.0% | u | x | x | u | x | u
CCOC(=O)c1c(C)cc(O)cc1O | x | -10.7% | 0.0%&-10.9% | -3.5% | x | x | 2.2% | x
CN(C)S(=O)(=O)c1cccc(C(=O)NC2CCCc3ccccc32)c1 (stereo not given) | -6.9% | -8.4% | 53.0%[activator] | -0.2% | 6.0% | 1.0% | -12.1% | 19.1%
Cc1ccc(NCc2cccn2-c2nnc(N3CCC(C(=O)NCc4ccc(OC(C)C)cc4)CC3)s2)cc1 | x | x | u | -4.3% | x | u | -12.6% | x
CCCn1c(=O)c2ccccc2n2c(SCC(=O)c3ccc(F)cc3)nnc12 | 1.5% | x | x | 3.1% | -8.1% | 3.7% | -9.8% | x
COc1ccc(Cl)cc1NC(=O)CCN1C(=O)C2C3C=CC(C4CC34)C2C1=O (stereo not given) | -17.0% | -11.1% | 6.4% | x | -1.7% | 8.5% | x | 8.1%
COc1ccccc1NC(=O)C1=C(C)Nc2nc(SCC(=O)c3ccc(C)cc3)nn2C1c1ccc(F)cc1 (stereo not given) | x | x | -11.1% | 2.0% | x | x | 6.4% | 23.8%[46.1 µM]
CCOC(=O)CC(=O)Nc1ccc(Br)cc1C(=O)O | -2.2% | 21.8% | u | 0.4% | -4.6% | 28.4% | -4.8% | 11.4%
Cc1nc(-c2ccc(S(=O)(=O)Nc3ccc(C#N)cc3)cc2)co1 | x | x | 87.2%[activator] | -8.7% | x | x | -1.2% | 4.3%[46.1 µM]
Cc1ccc(NC(=O)NNC(=O)c2cc3ccccc3cc2O)c(C)c1 | 11.5% | -1.8% | -1.5% | x | 1.8% | x | x | x
CN(NS(=O)(=O)c1ccc(Br)cc1)c1nc(C(F)(F)F)nc2ccccc12 | x | 1.0% | -27.9% | x | -2.1% | u | x | u
CCCCC(CC)COC1(c2ccccc2)OC(=O)c2ccccc21 (stereo not given) | 9.3% | 0.4% | -14.6% | -1.7% | -23.4% | 1.4% | -14.2% | 26.2%[14.3 µM]
COc1cc2[nH]c(=O)n(CCCC(=O)N3CCN(c4cccc(C(F)(F)F)c4)CC3)c(=O)c2cc1OC | x | x | u | 0.5% | x | -16.4%[46.1 µM] | -4.3% | -21.8%[46.1 µM]
CSc1cccc(NC(=O)C2CCN(C(=O)c3cnn(-c4ccccc4)c3-n3cccc3)CC2)c1 | x | x | u | -8.4% | x | -10.8%[46.1 µM] | 27.9% | u
Cc1cc(C)cc(NC(=O)CN2C(=O)c3ccccc3C2=O)c1 | 17.4% | -1.8% | 1.0% | x | 2.6% | 2.1% | x | 17.5%
Cc1ccccc1-n1c(SCC(=O)NCC2CCCO2)nc2c([nH]c3ccccc32)c1=O (stereo not given) | -7.0% | -6.8% | -5.7% | x | -2.9% | u | x | u
O=C(N/N=C/c1ccc(F)cc1)c1ccc(OCc2ccccc2)cc1 | 9.4% | -1.6% | 2.5% | x | 0.2% | x | x | x
Cc1onc(-c2ccccc2Cl)c1C(=O)Nc1nc2ccc(S(C)(=O)=O)cc2s1 | 3.9% | 13.5% | -5.8% | -5.2% | 7.8% | -36.5% | 6.3% | -16.1%
COc1cc(/C(C)=N/NC(=O)c2cccc(S(=O)(=O)N3CCCC3)c2)cc(OC)c1OC | 12.6% | 7.9% | -12.6% | x | 3.3% | 4.3% | x | -1.1%
CC1CCN(C2=NC(=O)/C(=C/c3cccc(O)c3)S2)CC1 | -0.4% | 2.4% | 42.7%[activator] | x | 0.6% | 9.9% | x | -20.0%
O=C(c1cc(C2CC2)nn1-c1ccccc1)N1CCN(Cc2ccccc2F)CC1 | x | -8.6% | -10.1% | x | 13.0% | -5.4% | x | -17.6%
CCn1c(O)c(C=C2N=c3ccccc3=N2)sc1=S | x | -1.8% | 13.3% | x | -2.1% | u | x | 4.1%
CSC1=NCCN1C(=O)c1ccc2c(c1)OCO2 | u | 7.7% | 19.0% | 2.5% | u | x | -3.1% | u
COc1cc(NC(=O)C2=CC(c3ccc(F)cc3)=NS(=O)(=O)N2C)cc(OC)c1OC | x | x | -27.7% | -5.1% | x | -3.1%[46.1 µM] | 7.7% | 21.7%[46.1 µM]
CCCC1C(c2ccco2)NC(c2ccco2)CC1(C)O (stereo not given) | -1.9% | 4.8% | -1.7% | 1.7% | 2.0% | 4.0% | 4.7% | 0.7%
COc1ccc(-c2nnc(NC(=O)c3ccc(S(=O)(=O)N(C)CC4CCCO4)cc3)o2)c(OC)c1 (stereo not given) | -4.7% | -3.0% | -12.8% | x | 0.9% | -26.9% | x | 0.7%
COCCNc1ccc([N+](=O)[O-])cc1C(=O)Nc1cccc(C)n1 | -34.4% | -17.8% | -10.9% | x | -0.4% | u | x | 1.9%
C#CCSc1nnc(-c2sc(-c3ccccc3)nc2C)n1C | -15.6% | 2.0% | 20.4% | -7.5% | 0.6% | u | -5.9% | 0.3%
Cc1ccc(NC(=O)CCC(=O)N/N=C/c2ccc([N+](=O)[O-])o2)cc1C | 3.4% | -7.9% | -23.7% | x | -4.5% | x | x | x
COc1cccc(/C=C(\C#N)c2nc3ccccc3c(=O)[nH]2)c1OC | x | x | -25.1% | -1.7% | x | x | -5.0% | 8.1%[46.1 µM]
CCC(CC)NC(=O)c1cccc(Br)c1 | x | 12.0% | -5.1% | x | 0.4% | 7.0%[46.1 µM] | x | 3.0%[46.1 µM]
COc1ccc(/C=N/NC(=O)CC#N)cc1Oc1nc(Cl)ncc1F | 6.4% | 1.9% | -21.5% | x | -1.6% | x | x | x
CCOc1cccc(=O)c2c(C)n(Cc3ccco3)c(C)c12 | 12.4% | -1.1%[3.69 µM] | -26.7% | -8.7% | 0.3% | 3.3% | u | 15.9%
CCOC(=O)c1c(N2CCCCC2)c2ccccc2[nH]c1=O | 2.7% | 10.6% | -4.5% | -0.3% | -10.2% | -7.6% | 7.5% | -7.0%
CCC(SC1=NCCS1)C(=O)Nc1nnc(-c2ccccc2OC)s1 (stereo not given) | 10.3% | -3.5% | -5.5% | -1.6% | -1.9% | x | -5.7% | x
CCN(CC)c1ccc(C=Nc2cc(C)ccc2C)c(O)c1 | -11.4% | x | 0.0% | -8.9% | -14.3% | 19.9% | -3.9% | 25.7%
COCCNC(=O)CSc1c2c(nc3cc(Cl)ccc13)CCCC2 | x | x | u | -14.7% | x | u | u | u
O=C(c1nc2ccccn2c1CN1CCCC(c2nc3ccccc3o2)C1)N1CCCC1 (stereo not given) | 0.2% | 0.9% | -26.9% | x | 14.7% | -17.5% | x | -5.1%
O=C(C1=C[C@@H](c2ccc(Br)cc2)C[C@@H](OCc2ccc(CO)cc2)O1)N1CCOCC1 | -1.6% | -9.8% | 2.9% | x | 0.0% | x | x | x
CC(C)OC(=O)Cn1nnc2c(cnn2-c2ccccc2)c1=O | 3.7% | -8.2% | 25.1% | -4.7% | 3.0% | -0.8% | -14.7% | 27.5%
O=C(O)C1Cc2[nH]cnc2C(c2ccccc2O)N1 (stereo not given) | 12.1% | -22.7% | -9.3% | -3.0% | 1.9% | 17.5% | -3.8% | u
O=C(c1ccc2ccccc2n1)N1CCN(c2ccccc2)CC1 | -5.6% | -12.4% | 26.7% | -3.6% | -1.0% | 11.8% | -7.0% | -29.2%

Gathered by group, those above with a cyano group.
SMILES | NS1 function inh | RE007 growth inh | 2A StopGo | Cruzain Triton | SARS PLpro yeast | Marburg entry inh | Cruzain noTriton | Lassa entry inh
Cc1nc(-c2ccc(S(=O)(=O)Nc3ccc(C#N)cc3)cc2)co1 | x | x | 87.2%[activator] | -8.7% | x | x | -1.2% | 4.3%[46.1 µM]
COc1cccc(/C=C(\C#N)c2nc3ccccc3c(=O)[nH]2)c1OC | x | x | -25.1% | -1.7% | x | x | -5.0% | 8.1%[46.1 µM]
COc1ccc(/C=N/NC(=O)CC#N)cc1Oc1nc(Cl)ncc1F | 6.4% | 1.9% | -21.5% | x | -1.6% | x | x | x

Next section:
SMILES | NS1 function inh | RE007 growth inh | 2A StopGo | Cruzain Triton | SARS PLpro yeast | Marburg entry inh | Cruzain noTriton | Lassa entry inh
COc1ccc([N+](=O)[O-])c(OC)c1C(=O)NC(=O)Nc1nc(C)nc(C)n1 | 2.7% | -0.1% | -11.2% | x | -0.2% | 14.5%[46.1 µM] | x | 0.1%[46.1 µM]
C=CCOc1ccc(/C=N/n2cncn2)cc1OC | -5.0% | 1.9% | -17.7% | -5.9% | 2.5% | u | -8.1% | 4.7%
CCOc1ccccc1CNC(c1ccccc1)c1ccccc1 | -21.0% | -2.3% | -23.1% | x | 0.5% | x | x | x
C=C(C)C1CC=C(C)/C(=N/NC(=S)Nc2ccccc2)C1 (stereo not given) | -9.0% | 5.7% | 36.8%[activator] | -12.1% | 10µM* | 2.9% | -18.3% | 1.4%
